TRPV1 potentiator = potentiators of human vanilloid receptor 1 (TRPV1) | AID 540277 | TRPV1-expressing cells, Fluo-8 calcium influx, capsaicin EC20 potentiation; host cell line not named in the record; control for the full effect not named in the record | hit rate 0.02% among 320,000 | potentiation, % at 8.33 µM; active means potentiation above 80%; inconclusive means 30% to 80%; inactive means below 30%; further: 0% is about no effect
Target sequence (Q8NER1 whole entry, looked up): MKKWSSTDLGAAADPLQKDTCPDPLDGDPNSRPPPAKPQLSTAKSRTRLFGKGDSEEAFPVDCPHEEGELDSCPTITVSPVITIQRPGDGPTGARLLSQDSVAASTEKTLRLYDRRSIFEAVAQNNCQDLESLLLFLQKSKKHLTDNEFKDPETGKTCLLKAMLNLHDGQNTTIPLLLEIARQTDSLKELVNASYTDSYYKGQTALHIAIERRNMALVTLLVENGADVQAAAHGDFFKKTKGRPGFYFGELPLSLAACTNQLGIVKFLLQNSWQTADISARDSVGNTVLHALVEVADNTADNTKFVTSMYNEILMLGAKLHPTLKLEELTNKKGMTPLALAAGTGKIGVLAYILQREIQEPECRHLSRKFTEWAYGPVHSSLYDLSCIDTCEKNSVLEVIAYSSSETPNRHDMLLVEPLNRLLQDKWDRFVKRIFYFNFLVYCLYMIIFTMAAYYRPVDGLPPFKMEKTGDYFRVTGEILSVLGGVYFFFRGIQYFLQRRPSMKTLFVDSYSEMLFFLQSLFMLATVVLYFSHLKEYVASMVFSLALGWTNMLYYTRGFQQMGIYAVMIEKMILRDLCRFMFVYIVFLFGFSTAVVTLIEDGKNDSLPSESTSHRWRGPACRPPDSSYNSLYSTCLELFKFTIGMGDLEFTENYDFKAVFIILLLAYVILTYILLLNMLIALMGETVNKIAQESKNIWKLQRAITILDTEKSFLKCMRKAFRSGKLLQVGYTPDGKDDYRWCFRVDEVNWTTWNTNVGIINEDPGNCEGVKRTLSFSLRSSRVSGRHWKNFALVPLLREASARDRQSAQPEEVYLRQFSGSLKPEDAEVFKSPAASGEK
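Cells expressing TRPV1 were dye-loaded with Fluo-8 and read kinetically: 10 s baseline, 3 min after compound (agonist portion), then 2 min after EC20 capsaicin (allosteric enhancer portion). Calcium-bound dye fluorescence at 480/520 nm.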
gsp agonist = activates gsp, the McCune-Albright syndrome mutation; AID 624287; Potency, µM (highest dose often 76.9 µM), inactives show at the top dose activation (cAMP increase), hits mostly activators; gsp mutant cells, cAMP HTRF, 30 min; control for the full effect not named in the record; hit rate 0.13% among 340,000; active = well fitted activation curve with a large enough effect; inconclusive = small, poorly fitted or top-dose-only effect, or another doubt; inactive = no such curve, though single readings can be large or run the other way; cell line not stated here;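 further: phosphodiesterase inhibitor Ro 20-1724 added with compounds to block cAMP breakdown; potency means the concentration at half of the fitted maximal effect; nearly all actives have a fitted effect of over 60% in size; about a fifth of the inactives were tested at one dose only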
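Cells stably selected in G418 were plated at 2000/well, grown 16-24 hr, then given compounds in DMSO with the PDE inhibitor […] (300 uM solution added) for 30 min at 37C; cAMP was read by HTRF.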
Menin-MLL FL inh = displaces fluorescein MLL peptide from human menin; Fluorescence polarization, fluorescein-MLL peptide displacement from menin; FP activity change, % at 61.4 µM; 290,000 tested, under 10 active; AID 1766; inconclusive = falling polarisation curve, or a change in total fluorescence; inactive = total fluorescence flat and polarisation flat or rising; no compound was filed as active; the % refers to the polarisation; negative = inhibition;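 further: % of control where 0% means no effect; inhibitors lower the polarisation; unlabelled MLL peptide was the positive control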
gsp antag = antagonizes gsp, the McCune-Albright syndrome mutation; gsp-mutant cells, cAMP HTRF, 30 min; control for the full effect not named in the record; hit rate 0.4% among 340,000; AID 624288; Potency, µM (titrated, usually from 76.9 µM), for the others: at the highest dose activity change, negative = inhibition, usual class: inhibitors; active = falling curve of any shape with a large fitted effect; inconclusive = falling curve, mostly with a smaller effect; inactive = flat or rising curve; cell line not stated here;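 further: intracellular cAMP measured with PDE inhibitor Ro 20-1724 present during compound exposure; potency means the concentration at half of the fitted maximal effect; on the % scale 0 is the no-effect control and ±100 the full control effect; nearly all actives have a fitted effect of over 65% in size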
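HTRF cAMP measurement after 30 min RT detection following 30 min, 37C compound treatment alongside […] (added as 300 uM solution) in G418-selected cells seeded at 2000/well and grown 16–24 h.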
Sfp inh = Sfp phosphopantetheinyl transferase inhibition; Q9F4F7; Biochemical Sfp PPTase activity, qHTS; Potency, µM, without a hit: max response, negative = inhibition, actives largely listed as inhibitors; hit rate 3.5% among 310,000; AID 1490; active means well fitted inhibition curve with a large enough effect; inconclusive means small, poorly fitted or top-dose-only effect, or another doubt; inactive means no such curve, though single readings can be large or run the other way;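 further: the enzyme is Sfp with the accession as filed and its product quenches rhodamine fluorescence; potency means the concentration at half of the fitted maximal effect; 0% = enzyme reaction without inhibitor and -100% = no enzyme wells; top concentration of the series not given in the record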
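Fluorescence-quenching assay: 15 nM Sfp-PPTase preincubated 15 min at room temperature with compound, then 5 uM rhodamine-CoA and 12.5 uM BHQ-2-labelled YbbR peptide added. Fluorescence (ex 525/em 598 nm) read at start and after 30 min; difference gives rate.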
ClpP mod = qHTS Assay for Activators of ClpP; purified B. subtilis ClpP, FRET peptide cleavage, 20 min; hit rate 1.9% among 340,000; Potency, µM (doses to about 57.5 µM), for inactives: at the highest dose activity change, negative = active; active = well fitted falling curve with a large enough effect; inconclusive = small, poorly fitted or top-dose-only effect; inactive = no such curve, though single readings can be large or run the other way; further: potency means the concentration at half of the fitted maximal effect; the source files actives as falling curves though it sought activators and does not explain the sign; nearly all actives have a fitted effect of over 65% in size; many hits overshoot -100%
Target sequence (P80244 whole entry, looked up): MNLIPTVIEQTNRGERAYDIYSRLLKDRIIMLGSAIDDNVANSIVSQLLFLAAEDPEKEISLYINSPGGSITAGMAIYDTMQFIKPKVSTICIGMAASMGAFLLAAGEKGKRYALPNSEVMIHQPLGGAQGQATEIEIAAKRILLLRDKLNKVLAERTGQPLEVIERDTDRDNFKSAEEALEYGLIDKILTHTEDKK
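FRET quenching reversal measured ClpP activation: 10 microg/mL B. subtilis ClpP at pH 8 with the FRET-FV decapeptide, read at 430 nm after 320 nm excitation. The 20-min minus 0-min signal was scaled between DMSO/no-enzyme wells and ADEP (5.8 microM final).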
D2 PAM = positive allosteric modulators of human D2 dopamine receptor; P14416; DiscoveRx D2 beta-arrestin cells, luminescence, 90 min; 100% = 57 uM dopamine signal; potentiation, % (test concentration not listed); hit rate 0.23% among 360,000; active = potentiation of 50% or more; inconclusive = 30% to 50%; inactive = 30% or less;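 further: compound concentration not given in the record; tested on top of an EC20 dose of dopamine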
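PathHunter beta-arrestin assay in DiscoveRx D2 cells. Compounds were added with an EC20 of dopamine (50 nM final) for 90 min at 37 deg C. Luminescence was read 1 h after detection reagent, with 57 uM dopamine as the EC100 control.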
The depositor's hits bear a star; ? = inconclusive; / = no result given; [ ] = remark or other dose.

SMILES	TRPV1 potentiator	gsp agonist	Menin-MLL FL inh	gsp antag	Sfp inh	ClpP mod	D2 PAM
COc1ccc(CNCc2cccc(C)c2)cc1	-10	-24%[15.4 µM]	-9.6	6%	-5%	-28%	-13
CCC(c1nnnn1CS(=O)(=O)c1ccc(C)cc1)N1CCC(C(N)=O)CC1 (stereo unspecified)	0	10%	-4.3	0%	10%	/	2
C=CCOC(=O)C1=C(C)NC(SCC)=C(C#N)C1c1ccc(Cl)cc1 (stereo unspecified)	-21	-16%	4.8	?	17%	-25%	10
COc1ccc(/C(C)=N/NC(=S)Nc2cc(C)ccc2C)cc1	7	-29%	-0.2	-14%	-14%	-0.4%	-8
CC(Cc1cccs1)NC(=S)Nc1ccccc1 (stereo unspecified)	-25	-18%	3.7	15%	-3%	/	-7
O=C1NC(c2ccncc2)Nc2ccccc21 (stereo unspecified)	3	15%	-0.6	19%	16%	?	10
COc1ccc(-c2cc(=O)oc3c(O)c(O)ccc23)cc1	-11	-2%[15.4 µM]	11	-25%	6%	?	1
COc1cccc2sc(N(CCN(C)C)C(=O)c3ccc4c(c3)CCCC4)nc12	-6	12%[15.4 µM]	2.9	-5%	-13%	-2.5%	-36
CCOc1ccc(NC(=O)CN(C)C(=O)c2c(C)nn(Cc3ccccc3Cl)c2C)cc1OCC	/	15%	/	1%	/	-0.3%	-3
Cc1ccc(C)c(NC(=O)c2cccc(Oc3ccc([N+](=O)[O-])cc3Cl)c2)c1	10	-81%[inhibitor]	4.7	-16%	11%	0.2%	-3
O=C(NC1CC2CCCC(C1)N2Cc1cccs1)c1ccc([N+](=O)[O-])cc1 (stereo unspecified)	6	/	-0.2	/	8%	/	/
CCCN(CCC)C(=O)C[n+]1cccc(/C=N/O)c1	18	-1%[15.4 µM]	6.3	17%	17%	-0.6%	-3
O=C(c1ccc(CN2CCc3ccccc3C2)cc1)N1CCN(c2ccc(F)cc2)CC1	/	-2%[15.4 µM]	/	10%	/	-0.6%	-18
CCCCCC(=O)Nc1ccc(C2C(=O)c3ccccc3C2=O)cc1	1	3%	-6.0	8%	14%	1.2%	-6
Cc1nccn1C(c1ccccc1)c1ccccc1	/	10%[15.4 µM]	/	6%	/	/	-11
COCCN(CC(=O)NCc1ccc(F)cc1)C(=O)CCC(=O)Nc1ccccn1	4	-17%	0.2	7%	13%	-1.3%	-1
CC(NC(=O)COC(=O)c1cc([N+](=O)[O-])ccc1N1CCOCC1)c1ccc(F)cc1 (stereo unspecified)	-23	5%[15.4 µM]	/	5%	/	/	-2
C[C@@]12CCC=C[C@H]1[C@H](c1ccc(F)c(/C=C/c3ccccc3)c1)N(Cc1ccccc1)C2=O	24	/	4.2	2%	-7%	28µM*	-25
Cc1cccc(/C=C/c2onc(C)c2S(=O)(=O)N2CCC(C(=O)NC(C)C)CC2)c1	-1	-30%	-2.5	-19%	17%	-11%	-3
c1ccc(CN2CCN(Cc3cn4cccnc4n3)CC2)cc1	6	?	0.4	8%	8%	/	-10
CCOc1ccc(-c2nnc(NC(=O)COc3ccccc3F)o2)cc1	/	-26%	/	/	/	-17%	-12
COCC1CCCCN1C(=O)c1ccc2oc(CCc3ccccc3)nc2c1 (stereo unspecified)	3	?	-5.2	4%	1%	-2.1%	-1
CC(=O)N1C=CN(C(C)=O)C(c2cn(C)c3ccccc23)C1c1cn(C)c2ccccc12 (stereo unspecified)	21	1%	-0.1	-4%	0%	-1.2%	-9
CCC(C)(C)n1nnnc1CN1CCN(c2nc3ccc(C)cc3cc2C#N)CC1	15	?	2.8	-23%	7%	-8.1%	-12
COc1ccc(CCNC(=O)COc2ccc([N+](=O)[O-])cc2)cc1	-10	7%[15.4 µM]	0.1	-4%	13%	/	-2
Cc1csc(SCC(=O)NCc2cccc(Cl)c2)n1	5	-25%	3.1	5%	18%	0.8%	-4
O=C1C=C(O)c2c(O)cccc2C1=O	3	/	-0.2	/	?	/	/
CCN(CC)CCCN1C(=O)C(=O)/C(=C(/O)c2cc(C)ccc2C)C1c1cccnc1 (stereo unspecified)	0	13%	-2.3	4%	15%	-5.2%	-3
Cc1cccc(-c2noc(-c3ccccc3C(=O)NCC3CCCO3)n2)c1 (stereo unspecified)	22	22%	0.6	-4%	12%	-0.4%	-5
COc1ccc(/C(N)=N/OC(=O)CC2CCCCC2)cc1OC	-12	?	/	1%	12%	-0.4%	5
CC(C)C[C@H](NC(=O)c1[nH]cnc1C(=O)N[C@@H](C)C(=O)OC(C)(C)C)C(=O)OC(C)(C)C	-7	14%	1.2	-11%	33%[activator]	4.6%	-16
O=C(CN1C(=O)NC2(CCCC2)C1=O)Nc1ccc(Cl)c(C(F)(F)F)c1	-5	-10%	-1.8	-1%	7%	/	-7
COc1ccc2c(C)c(CC(=O)N3CCN(C(=O)C4COc5ccccc5O4)CC3)c(=O)oc2c1 (stereo unspecified)	-19	-27%	/	?	13%	3.9%	1
CSc1ccc(Cl)c(C(=O)OCC(=O)N2CCOCC2)c1	-15	24%	0.6	6%	9%	-6.9%	-8
COc1ccc(C(C)NC(=O)c2ccccc2Br)cc1OC (stereo unspecified)	-4	-12%	-1.1	6%	8%	-0.3%	-3
CCOC(=O)C1CCN(CC(=O)Nc2c(C(=O)OC)[nH]c3cccc(Cl)c23)CC1	1	1%	-5.2	4%	21%	-19%	-15
Cc1c(N=C2SCC(=O)N2c2c(C)n(C)n(-c3ccccc3)c2=O)c(=O)n(-c2ccccc2)n1C	-4	14%	0.6	2%	10%	-1.1%	5
CCOC(=O)c1ccc(S(=O)(=O)NCCN(CC)CC)cc1	-13	?	3.1	4%	19%	/	-4
Cc1ccn2c(NCc3ccccc3)c(-c3cccc(SC4CCCCC4)c3)nc2c1	/	/	/	-12%	/	?	-19
Cn1ccnc1COc1ccc(C=O)cc1	23	22%[15.4 µM]	4.8	-12%	11%	0.3%	-3
CC1=NN(C(=O)c2ccc(C)o2)C(O)(c2ccccc2)C1 (stereo unspecified)	1	-18%	9.7	-4%	3%	-2.5%	-11
COc1c(C)cc(S(=O)(=O)N2CCCC2)c(C)c1C	-11	2%	2.3	?	20%	-2.4%	-5
Cc1[nH]c2ccccc2c1C(=O)CN1CCCCC1CCO (stereo unspecified)	-5	25%	2.1	-6%[15.4 µM]	10%	-3.4%	8
Cn1c(=O)c2c(nc(CN3CCN(c4ccccc4F)CC3)n2CCN2CCOCC2)n(C)c1=O	?	?	1.5	5%	1%	1.2%	-3
O=C(COC(=O)CCS(=O)(=O)c1ccc(Cl)cc1)Nc1ncc(Cl)cc1Cl	11	?	?	3%	3%	?	-8
O=C(O)C1CC(=O)N(Cc2ccc(F)cc2)C1 (stereo unspecified)	30	-15%	6.8	5%	0%	-0.5%	-11
Cc1cccc(C)c1NC(=O)CSc1nnc(NC(=O)c2ccccc2C(=O)O)s1	2	-14%	0.3	10%	17%	-2.9%	-6
CS(=O)(=O)N(CC(=O)N1CCCC1)c1cccc(C(F)(F)F)c1	/	-32%[inhibitor]	/	/	/	0.9%	3
CCOC(=O)c1cc(C(O)(C(F)(F)F)C(F)(F)F)c(/N=C/N(C)C)o1	5	-16%	0.5	3%	27%	-1.0%	?
CCN(Cc1cc2ccccc2[nH]c1=O)C(=O)C(C)C	-2	-5%	2.0	17%	5%	-16%	2
CCCSc1ccc([C@H]2N[C@@](CC(C)C)(C(=O)OC)[C@H]3C(=O)N(CC)C(=O)[C@@H]23)cc1	/	/	/	-3%	/	-2.2%	-4
O=C(COC(=O)c1ccccc1Cl)NCCC1=CCCCC1	2	-28%	-0.3	1%	-5%	1.2%	-8
NC(=O)C1CN(C(=O)c2cccc(S(=O)(=O)N3CCc4ccccc43)c2)c2ccccc2O1 (stereo unspecified)	1	3%	/	-16%	/	-2.2%	-2
CN=C(Nc1ccc(Cl)cc1)c1cccc(C(F)(F)F)c1	10	11%	0.4	6%	14%	8.6%	5
CCOc1cccc(CNCc2ccncc2)c1	-3	11%	-0.9	1%	15%	-1.2%	0
Cc1ccc(C(C)C)c(Oc2cnccn2)c1	-5	-33%[inhibitor]	1.0	-3%	-3%	-0.2%	-4
CCC(=O)NC(c1cccc([N+](=O)[O-])c1)c1c(O)ccc2ccccc12 (stereo unspecified)	1	6%	4.7	-12%	5%	/	-3
O=C(c1ccc([N+](=O)[O-])cc1)N1CCN(c2ncccn2)CC1	/	?	/	3%	/	/	-1
CCCCCc1ccc(CC(=O)Nn2c(C)nc3ccccc3c2=O)cc1	-8	-15%	-9.0	1%	?	0.5%	-2
Cc1c(C(=O)OC(C)C(=O)N(C)Cc2ccccc2)oc2ccccc12 (stereo unspecified)	/	21%	/	-25%	/	-14%	-3

Entries from the list above containing a CF3 group (4):
SMILES	TRPV1 potentiator	gsp agonist	Menin-MLL FL inh	gsp antag	Sfp inh	ClpP mod	D2 PAM
O=C(CN1C(=O)NC2(CCCC2)C1=O)Nc1ccc(Cl)c(C(F)(F)F)c1	-5	-10%	-1.8	-1%	7%	/	-7
CS(=O)(=O)N(CC(=O)N1CCCC1)c1cccc(C(F)(F)F)c1	/	-32%[inhibitor]	/	/	/	0.9%	3
CCOC(=O)c1cc(C(O)(C(F)(F)F)C(F)(F)F)c(/N=C/N(C)C)o1	5	-16%	0.5	3%	27%	-1.0%	?
CN=C(Nc1ccc(Cl)cc1)c1cccc(C(F)(F)F)c1	10	11%	0.4	6%	14%	8.6%	5

(further entries)
SMILES	TRPV1 potentiator	gsp agonist	Menin-MLL FL inh	gsp antag	Sfp inh	ClpP mod	D2 PAM
CC(O)Cn1cnc2c1c(=O)n(C)c(=O)n2C (stereo unspecified)	6	/	3.7	-5%	21%	0.2%	-12
COc1ccc(C(C)(C)C)cc1S(=O)(=O)N1CCN(C)CC1	-7	6%	-0.1	8%	9%	-1.8%	-9
CCn1cc(C(=O)N2CCN(c3ccc(C(C)=O)cc3)CC2)c2cc(OC)c(OC)cc2c1=O	-1	10%	-0.3	0%	27%	-13%	0
O=C(Nc1ccc(Cl)cc1)c1nc[nH]c1C(=O)Nc1ccccc1F	/	-53%[inhibitor]	/	/	/	-19%	-4
Cc1sc2nc(SCC(=O)c3cccs3)n(Cc3ccco3)c(=O)c2c1C	18	-13%	1.5	6%	?	-0.2%	2

From PubChem BioAssay
